PrP 5UTR inh: inhibition of PrP 5' UTR reporter expression | cell-based PrP 5' UTR mRNA reporter, plate reader | hit rate 0.35% among 340,000 | AID 488862, 2010 | inhibition, % (concentration not given with the values);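 active means every replicate at 50% or more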;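 further: 0 = median of the neutral control wells; tested in H4 reporter cells; numbers are from one replicate; inactives centre near -14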
Mtb hypoxia inh: PubChem AID 1159583 | fluorescence inhibition, % (concentration not given with the values) | hit rate 0.1% among 300,000 | M. tuberculosis hypoxia-regulated fluorescent reporter, fluorescence;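 active means 35 to 45% if threefold the growth effect, above 45% if 1.5-fold the growth effect; inactive means the rest, general growth blockers included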;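 further: wells of about 50 µL received 100 nL stock; 0% = vehicle wells and 100% = reference inhibitor wells; whole bacteria with a GFP reporter of the hypoxia response; strong numbers were not always called active; many hits fall short of the cut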
RN4220 kill: growth inhibition of S. aureus RN4220, primary screen, OD600 | 16 h | inhibition, % (test concentration not listed) | hit rate 0.33% among 330,000;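 active means z-score of -3 or lower and OD600 up to 0.18 on both plates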;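 further: plate controls were untreated cells for no effect and reference antibiotic for full effect; stock transfer was 100 nL into about 80 µL; one replicate is shown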
Bead autofluor: counter-screen for toxin protease inhibitors: compound fluorescence. hit rate 3.1% among 360,000. AID 624483. fluorescence intensity (test concentration not listed). compound autofluorescence counterscreen, microsphere flow cytometry; hits give high values;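 active means at least 3 SD above the mean of all compounds, about 16000 in these data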;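 further: 100 nL of 1 mM stock went into each well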
BJeLR lethal: MLPCN primary cell-based screen for lethality selective to Ras in HRASV12 cells; BJeLR (HRASV12) viability, CellTiter-Glo ATP luminescence, 48 h; reference of the scale not given here; inhibition, % (test concentration not listed); hit rate 0.17% among 300,000; AID 1554, 2009;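 active means replicate mean above 50%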;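 further: 50 nL library stock added to about 25 µL; numbers are from one replicate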
ugtP null kill: growth inhibition of ugtP-null S. aureus, primary screen, RN4220 ugtP deletion, OD600 | 16 h; some inactives read as strong as hits | growth inhibition, % (no concentration beside the values) | hit rate 0.54% among 330,000;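 active means z-score under -3 and OD600 up to 0.15 on both plates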;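 further: plate controls were untreated wells for no effect and antibiotic for full effect; wells of about 80 µL received 100 nL stock; the first replicate is given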
Mtb hypoxia inh growth: further read-out of Mtb hypoxia inh, marked with its call; growth inhibition, %; measured here: M. tuberculosis growth (absorbance);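 0% = vehicle and 100% = reference antibiotic; read after six days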
An asterisk follows results filed as active; / = not tested or not shown.

SMILES | PrP 5UTR inh | Mtb hypoxia inh | Mtb hypoxia inh growth | RN4220 kill | Bead autofluor | BJeLR lethal | ugtP null kill
O=C(N/N=C/c1ccco1)c1cc(-c2ccccc2)n[nH]1 | -3 | / | / | / | 4339 | -5 | /
COc1cccc(/C(O)=C2/C(=O)C(=O)N(CCCN3CCOCC3)C2c2ccncc2)c1 (stereo unspecified) | -29 | 11 | 12 | 4.1 | 9892 | 0 | 2
CCOc1ccc(N(CC(=O)N2CCCC2)S(=O)(=O)c2c(C)noc2C)cc1 | -23 | / | / | 2.7 | 5243 | -3 | 2
CCc1ccc(-c2nn(-c3ccccc3)cc2CSC(=N)N)cc1 | / | 10 | 16 | 15 | / | 103* | -21
O=C(Nc1ccc(Cl)cc1)C1CCN(C(=O)c2ccco2)CC1 | -18 | 1 | 2 | 1.8 | 3846 | -13 | 1
Cc1nn(Cc2c(Cl)cccc2Cl)c(C)c1NC(=O)c1sc2ccccc2c1Cl | -3 | -7 | 16 | 6.9 | 4598 | -7 | -13
O=C(C1CCN(S(=O)(=O)c2ccc(-n3cnnn3)cc2)CC1)N1CCCCC1 | -22 | 3 | -3 | 4.6 | 6240 | 1 | 3
Cn1c(SCC(=O)c2ccccc2)nnc1C1COc2ccccc2O1 (stereo unspecified) | -9 | 9 | 1 | 1.8 | / | 5 | 8
COc1ccc(C(C)=O)cc1CN1CCCCC1 | -13 | / | / | 1.7 | 4271 | 2 | 1
Cc1ccc(NCc2ccc([N+](=O)[O-])s2)cc1 | -42 | 7 | 10 | 6.6 | 4311 | -12 | 11
O=C(c1cccnc1NCc1ccccc1)N1CCOCC1 | 1 | / | / | 5.3 | 3962 | -16 | -3
Cc1nc(N2CCCCC2)c2sc(=S)n(C)c2n1 | -18 | / | / | 2.0 | 6126 | 0 | 9
Cc1nc(=O)c(-c2ccccc2)c(C)n1-c1ccc(Br)cc1 | / | -12 | -5 | -4.9 | 6258 | -3 | -5
O=C(C1CCCN(S(=O)(=O)c2cnc[nH]2)C1)N1CCN(c2ccc(Cl)cc2)CC1 (stereo unspecified) | -19 | / | / | 3.1 | 5578 | 8 | 9
CCOC(=O)C1(Cc2ccccc2C)CCCN(S(C)(=O)=O)C1 (stereo unspecified) | -4 | -1 | 10 | 0.3 | 3423 | -1 | 4
O=C(N/C(=C\c1ccc([N+](=O)[O-])cc1)C(=O)N1CCCCC1)c1ccccc1 | -10 | / | / | / | 4809 | 10 | /
COc1cccc(N2CCN(C(=O)C3C4C=CC5(CN(Cc6ccccc6Cl)C(=O)C35)O4)CC2)c1 (stereo unspecified) | -14 | 4 | 5 | 0.6 | 23129* | 16 | 2
CC(=O)c1cccc(NC(=O)C2C3CCC(C3)C2C(=O)O)c1 (stereo unspecified) | -27 | 16 | 4 | 2.2 | 3882 | -10 | 3
COc1cccc(NC(=O)N(CCN(C)C)C(C)c2cccnc2)c1 (stereo unspecified) | -16 | 3 | -1 | 5.3 | 3648 | 5 | 2
Cc1c(C(=O)N2CCN(c3ccccc3)CC2)sc2nc3n(c(=O)c12)CCC3 | -18 | 7 | 1 | 0.9 | 5455 | 1 | 12
O=C(N/N=C/c1ccccn1)c1ccco1 | -24 | / | / | / | 4171 | 3 | /
CCCN1CCC(NC(=O)Nc2cccc3ccccc23)CC1 | 6 | -3 | -4 | 8.8 | 4864 | 7 | 5
Cc1cc(C)c2cc(C#N)c(N3CCCN(C(=O)c4cnccn4)CC3)nc2c1 | -1 | 1 | 11 | 6.5 | 4287 | -9 | -4
Cc1cc(C(=O)N2CCCC(C(=O)c3ccc4ccccc4c3)C2)n(C)n1 (stereo unspecified) | -44 | 4 | 5 | 5.1 | 2432 | -1 | -1
O=C(Nc1cccc(S(=O)(=O)N2CCCC2)c1)c1cc(S(=O)(=O)N2CCOCC2)ccc1F | -4 | -2 | 3 | 2.0 | 4714 | -2 | 6
O=C(NCc1ccccc1)C1(c2cccc(F)c2)CCCC1 | 16 | 15 | 5 | -0.5 | 4487 | / | 11
COc1ccc(C(=O)c2ccc(Cl)cc2)c(OC)c1OC | -34 | -1 | 3 | 9.4 | 3750 | / | 8
CCOC(=O)c1cc(-c2ccccc2)sc1NC(=O)C(C)Sc1nnnn1C (stereo unspecified) | 6 | 0 | 3 | -1.7 | 4621 | -15 | -10
O=C(CN1C2CCCC1CC(NC(=O)c1ccco1)C2)Nc1ccccc1 (stereo unspecified) | -25 | / | / | -0.2 | 2551 | 3 | 4
c1ccc2oc(-c3[nH]ncc3CN3CCSCC3)cc2c1 | -26 | -3 | 8 | 1.2 | 4472 | 3 | 5
C[C@@H]1CCC[C@]2(O[C@@H](CCO)C[C@H](O)[C@H]2O)O1 | -14 | / | / | / | 3478 | 0 | /
COCCNC(=O)C1CCN(S(=O)(=O)c2ccccc2)CC1 | -2 | -11 | -13 | 1.0 | 9327 | 21 | -2
O=c1cc(CSc2nnnn2-c2ccc(O)cc2)nc2sccn12 | -26 | 4 | -1 | 2.3 | 4629 | 4 | 2
COc1cccc(NC(=O)CN(C)C(=O)c2cccc(NS(=O)(=O)c3ccc(Br)cc3)c2)c1 | -14 | 1 | 2 | -0.4 | 3801 | / | -1
Cc1c(N=C/C=C2\N(C)c3ccccc3C2(C)C)c(=O)n(-c2ccccc2)n1C | -15 | 9 | 2 | -0.2 | 8872 | -12 | 9
O=C(C1CSC2(c3ccc(F)cc3)CCC(=O)N12)N1CCCCCC1 (stereo unspecified) | -5 | -3 | 5 | 8.6 | 20230* | 3 | -5
COc1ccc(CC(=O)NN=Cc2ccc(C)s2)cc1 | / | 5 | 2 | 4.1 | / | / | -3
CC1CCCC(C)N1CCCNC(=O)c1nn(C)c2c1CSc1ccccc1-2 (stereo unspecified) | -6 | 6 | 0 | -5.6 | 5498 | 3 | 8
CC(C)C(=O)Nc1nnc(CCc2ccccc2)s1 | -22 | 9 | -4 | 3.4 | 3098 | -10 | 0
Cc1cc2nc3c(nc2cc1C)C(O)=C3O | -2 | 7 | -2 | 3.8 | 3304 | -14 | 8
Cn1cc(C(=O)N2CCCCC2)c2ccccc21 | -9 | 14 | 14 | 6.5 | 4441 | 1 | 4
Cc1ccc(C2(CCNCc3ccco3)CCOC(C(C)C)C2)cc1 (stereo unspecified) | -17 | 6 | -1 | -0.5 | 5649 | -2 | 2
Cn1cccc1C1CCCN1CC(=O)Nc1ccc(C#N)c(Cl)c1 (stereo unspecified) | -15 | 7 | 3 | -3.0 | 4231 | / | -3
Cc1cc(N2CCN(C)CC2)nc2ccc(NC(=O)c3cccnc3Cl)cc12 | -20 | 0 | 6 | 0.4 | 7352 | 4 | -2
CCOC(=O)N1CCN(C(=O)c2ccc(CS(=O)(=O)c3ccc(OC)cc3)o2)CC1 | 1 | / | / | 0.4 | 5052 | -3 | 0
Cc1ccc(Oc2c(F)c(F)nc(N3CCCC3)c2F)cc1 | -26 | 2 | -5 | 0.5 | 2598 | 21 | 31
NC(=O)C1CCN(C(=O)c2cccc(CN3C(=O)c4ccccc4C3=O)c2)CC1 | -17 | 23 | 9 | 3.6 | 3829 | / | 3
CC1CCN(S(=O)(=O)c2cccc(C(=O)Nc3ccccc3)c2)CC1 | -23 | 11 | 12 | 2.6 | 7704 | -14 | 11
CC(C)c1cc(C(C)C)n2nc(N)nc2n1 | 6 | -3 | 5 | 3.3 | 3962 | -2 | 4
COc1ccc(/C=C(\NC(=O)/C=C/c2ccco2)C(=O)NCCc2nc3ccccc3[nH]2)cc1 | -26 | 4 | 23 | 2.8 | 2091 | 11 | 3
CN(C(=O)COC(=O)c1ccc2ccccc2n1)c1ccccc1 | -25 | 0 | 1 | -2.6 | 3801 | / | -8
CC(C)(C)C(=O)CSc1nc2ccccc2o1 | -57 | -4 | 3 | -2.3 | 4329 | -2 | 20
COc1cccc(C2(c3cccc(OC)c3)CC2C(=O)Nc2ccc(F)cc2)c1 (stereo unspecified) | -21 | 5 | 2 | 6.6 | 2185 | 12 | -13
O=C(c1cc(Cl)nc2ccccc12)N(Cc1nnc(-c2ccccc2Cl)o1)C1CC1 | -7 | 5 | 0 | 0.5 | 6231 | -2 | 4
CN1CCN(C2CC(=O)N(Cc3ccc(N4CCCC4=O)cc3)C2=O)CC1 (stereo unspecified) | -21 | 6 | 9 | 4.8 | 8983 | -1 | -10
Cc1ccc(O)c(C2=Nc3ccccc3N=C(c3ccco3)C2)c1 | -12 | 15 | 6 | 5.5 | 3005 | -2 | 11
CN(C)c1nc(SCc2ccccc2Cl)nc2c1CCCC2 | 3 | 10 | 11 | -10 | 2469 | 4 | 26
CC(=O)CCc1oc2ccc([N+](=O)[O-])cc2c1-c1ccc(C)o1 | -20 | -8 | 0 | 4.7 | 4084 | -5 | 4
CCN1CCN(c2nc(N)c([N+](=O)[O-])c(Nc3cccc(C)c3)n2)CC1 | -35 | 8 | 7 | 3.0 | 11175 | 1 | 0
CCN(C(=O)CSc1ncn[nH]1)c1cccc2ccccc12 | -19 | -9 | -4 | 1.6 | 3269 | 7 | 5

Compounds from the list above containing bromine, in the order listed:
SMILES | PrP 5UTR inh | Mtb hypoxia inh | Mtb hypoxia inh growth | RN4220 kill | Bead autofluor | BJeLR lethal | ugtP null kill
Cc1nc(=O)c(-c2ccccc2)c(C)n1-c1ccc(Br)cc1 | / | -12 | -5 | -4.9 | 6258 | -3 | -5
COc1cccc(NC(=O)CN(C)C(=O)c2cccc(NS(=O)(=O)c3ccc(Br)cc3)c2)c1 | -14 | 1 | 2 | -0.4 | 3801 | / | -1

Other compounds.
SMILES | PrP 5UTR inh | Mtb hypoxia inh | Mtb hypoxia inh growth | RN4220 kill | Bead autofluor | BJeLR lethal | ugtP null kill
COc1cc([N+](=O)[O-])cc(/C=N/NC(=O)C(O)(c2ccccc2)c2ccccc2)c1O | -10 | / | / | / | 2892 | -4 | /
N#CC1=C(SCc2ccccc2)NC(=O)C(C#N)C12CCCC2 (stereo unspecified) | 5 | / | / | 14 | 3679 | 9 | -2
CCCCC(=O)Nc1ccc2c(c1)nc1n2CCN(CCOC)C1 | / | 3 | -2 | 2.7 | 5175 | -5 | 8
Cn1cc(Cl)c(C(=O)NNC(=S)Nc2cccc(Cl)c2)n1 | -17 | 1 | -7 | 4.7 | 2514 | 4 | -6
Cc1ccc2ncc(S(=O)(=O)c3ccccc3)c(N3CCCCC3C)c2c1 (stereo unspecified) | -25 | 10 | 9 | 3.9 | 5925 | -8 | 15
COc1ccc(C(=O)N2CCN(c3ccc([N+](=O)[O-])c(NCCc4ccc(OC)c(OC)c4)c3)CC2)cc1 | -23 | 5 | 1 | 11 | 10565 | 3 | -16
O=C1CCC(C(=O)Nc2cccc(S(=O)(=O)N3CCOCC3)c2)N1 (stereo unspecified) | -14 | 12 | 3 | 5.6 | 4003 | -7 | -69
Cc1ccc(O)c(NC(=O)c2ccccc2-c2ccccc2C(=O)O)c1 | -25 | / | / | -1.9 | 4065 | 4 | -1
O=C(CC(=O)Nc1ccc(F)cc1)Nc1ccc(F)cc1 | -24 | -3 | -3 | 0.3 | 3432 | 6 | 18
O=C(NN=C1CC(c2ccccc2)Oc2ccccc21)c1cccnc1 (stereo unspecified) | / | 5 | 6 | 0.7 | / | / | 8
Cc1onc(-c2ccccc2Cl)c1C(=O)N1CCCCCC1 | -14 | -7 | -4 | 4.2 | 4682 | -20 | 1
CN(C)c1ccc(N=Cc2nc(-c3ccccc3)oc2OC(=O)c2cccc(Cl)c2)cc1 | -107 | 9 | 4 | 3.9 | 2404 | 2 | 7
O=C(c1nnc(-c2ccccc2)o1)C1CC1 | -36 | 17 | 10 | 0.9 | 4203 | 1 | 8
COc1ccc(OC)c(NC(=O)Nc2cnccn2)c1 | -6 | 2 | 0 | 2.1 | 4487 | 1 | 8

Single records (already shown). Order of screens: PrP 5UTR inh	Mtb hypoxia inh	Mtb hypoxia inh growth	RN4220 kill	Bead autofluor	BJeLR lethal	ugtP null kill
Cc1nc(N2CCCCC2)c2sc(=S)n(C)c2n1 reads -18	/	/	2.0	6126	0	9
CCc1ccc(-c2nn(-c3ccccc3)cc2CSC(=N)N)cc1 reads /	10	16	15	/	103*	-21
CC(C)(C)C(=O)CSc1nc2ccccc2o1 reads -57	-4	3	-2.3	4329	-2	20
CN1CCN(C2CC(=O)N(Cc3ccc(N4CCCC4=O)cc3)C2=O)CC1 (stereo unspecified) reads -21	6	9	4.8	8983	-1	-10
COc1cccc(C2(c3cccc(OC)c3)CC2C(=O)Nc2ccc(F)cc2)c1 (stereo unspecified) reads -21	5	2	6.6	2185	12	-13

Assay outcomes as filed in PubChem BioAssay.
